High-throughput results (PubChem BioAssay)
LT uptake inh = qHTS Assay for Anthrax Lethal Toxin Internalization; Cells, anthrax lethal toxin internalization, FRET ratio (460/530); Potency, µM (series often up to 40 µM), for inactives: at the top dose activity change, negative = inhibition, usual class: inhibitors; 70,000 compounds, 0.67% hits; AID 912, 2007; active = well fitted falling ratio curve with the 530 nm signal flat; inconclusive = other ratio curves, or a change in one channel alone; inactive = flat curves in the ratio and both channels; the % refers to the ratio; further: on the % scale 0 is the no-effect control and ±100 the full control effect; nearly all actives have a fitted effect of over 50% in size; tested in ME-180 cells; beta-lactamase reporter
SmPrx2 inh = Schistosoma Mansoni Peroxiredoxins (Prx2); Schistosoma mansoni peroxiredoxin 2 (Prx2); S. mansoni Prx2 activity coupled to TGR/GSH (TGR is thioredoxin glutathione reductase), NADPH fluorescence loss, qHTS; some inactives read as strong as hits; Potency, µM; 65,000 compounds, 0.07% hits; AID 448, 2006; active means full or partial inhibition curve with a strong effect at the top dose; inconclusive means weaker partial or single-point curve; inactive means no accepted curve; further: series up to 57 µM; many of its hits are not listed in these tables
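Purified S. mansoni TGR and Prx2 in pH 7.4 phosphate buffer with EDTA and Tween-20 were preincubated with compounds for 15 min. Further NADPH/GSH was added, then a 2.5 mM H2O2 aliquot initiated turnover, followed kinetically by NADPH fluorescence.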
Numbers without * were called inactive; u = inconclusive; x = not tested or not shown; & = joins results of further samples; [ ] = another dose, or the depositor's remark. Potency means the concentration at half of the fitted maximal effect. Only part of the results is shown; the hit share may differ from the screen's.

SMILES | LT uptake inh | SmPrx2 inh
CCCOC(=O)c1ccc(OCC(O)Cn2c(C)nc3ccccc32)cc1 (centres undefined) | -34% | >57
CCCCP(=O)(O)c1ccccc1 | -3% | x
CCOc1ccccc1N(CC(=O)NC1CCCC1)C(=O)CCC(=O)Nc1cc(C)on1 | u | >57
CCC(C(=O)NC1CCCC1)N(C(=O)Cn1nnc(-c2ccc(C)o2)n1)C(C)(C)C (centres undefined) | -4% | >57
O=C(C1CC(=O)N(C2CCCCC2)C1)N1CCC2(CC1)OCCO2 (centres undefined) | 5% | >57
O=C(NCc1ccco1)c1ccc(CS(=O)(=O)c2cccc(C(F)(F)F)c2)o1 | 11% | >57
COCCn1nnnc1C(c1ccc(C)cc1)N1CCN(Cc2ccc3c(c2)OCO3)CC1 (centres undefined) | -16% | >57
O=C(Nc1nc(SCc2ccc(F)cc2)ns1)c1ccco1 | u | x
CO[C@H]1COC(=O)CCC[C@H](C)[C@@H](OC)COC(=O)C/C=C\[C@@H]1C | -8%[0.32 µM] | x
COc1cccc(/C=C2\N=C(SC)SC2=O)c1OC | -15% | x
CC(C)Nc1ncnc2c1cnn2-c1ccccc1 | u | >57
O=C1CC(c2ccco2)=Nc2ccccc2N1 | -10% | >57
CC(=O)N1CCC2(CC1)CC(=O)c1cc(OCC(=O)N3CCN(C)CC3)ccc1O2 | 5% | >57
Cc1ccc(Cn2nnc3c(=O)n(CC(=O)N4CCCCC4)cnc32)cc1 | -6% | >57
O=C(CCCn1c(=S)[nH]c2cc3c(cc2c1=O)OCO3)N1CCN(c2ncccn2)CC1 | 1% | >57
CC(=O)c1cccc(NC(=O)CN2C(=O)C3C4C=CC(C4)C3C2=O)c1 (centres undefined) | -13% | x
O=S(=O)(NCCc1ccccc1F)c1cccc(S(=O)(=O)N2CCOCC2)c1 | -9% | >57
O=C(O)c1ccc(C(=O)c2ccc3c(c2)C(=O)N(Cc2ccco2)C3=O)cc1 | 5% | >57
O=c1oc(-c2cccc(S(=O)(=O)N3CCOCC3)c2)nc2ccccc12 | 15% | >57
COc1cccc(C2C(C(=O)Nc3cccnc3)=C(C)Nc3nnnn32)c1OC (centres undefined) | -6% | >57
Cc1cc(NC(=O)CCC(=O)N(c2ccccc2)C(C(=O)NC2CCCC2)c2cccs2)no1 (centres undefined) | -6% | >57
Cc1cccc(NC(=O)CCn2nc(C)cc2C)c1 | 23% | >57
O=C(COc1ccc(Cl)cc1)OCC(=O)N1CCCCCC1 | -4% | >57
CC1=C(C)NC(=S)SC1 | 2% | >57
CCCc1ccccc1OCCNC(C)=O | 9% | >57
CCn1c(SCC(=O)N2CCN(c3ccccc3)CC2)nnc1-c1cc2cc(Cl)ccc2o1 | 8% | >57
COc1cc(-c2nnc(SCC(=O)OC3CCCCC3)o2)cc(OC)c1OC | u | >57
CC1=C(C#N)C(=O)N(C)C(C)(C)C1 | u | >57
CC(C)[C@H](CO)Nc1nc(Nc2ccc(C(=O)O)c(Cl)c2)c2ncn(C(C)C)c2n1 | -1% | >57
Cc1cc(C(=O)NCc2ccc(S(N)(=O)=O)cc2)c(C)o1 | u | >57
CCCCC(=O)Nc1sc2c(c1C(N)=O)CCC2 | 3% | >57
O=C(NCc1ccco1)c1cccc2ccccc12 | -10% | >57
COc1ccccc1N1CCN(CCCCN2C(=O)c3ccccc3C2=O)CC1 | -12%&-5% | >57&>57
Cc1ccc(CCSCC(=O)O)cn1 | -8% | >57
CC1=CC(C)(C)Nc2ccc(OC(=O)c3ccco3)cc21 | u | x
S=c1[nH]ncn1/N=C/c1ccccc1 | -6% | >57
CCCN1CCC(N2CCN(c3cccc(C(F)(F)F)c3)CC2)CC1 | u | x
CC(NC(=O)c1ccccc1NS(C)(=O)=O)c1ccccc1 (centres undefined) | -2% | >57
COc1ccc(S(=O)(=O)N(Cc2cccs2)C2CCCC2)cc1 | -14% | >57
CCOC(=O)C1CCN(C(=O)c2cccc(C(=O)N3CCC(C(=O)OCC)CC3)c2)CC1 | 19% | x
CC(C)CCN1C(=O)CCC1(C)C(=O)NC1CCCCCC1 (centres undefined) | -3% | u
CC(=O)N1CCN(S(=O)(=O)c2cccc(C(=O)Nc3ccc4c(c3)CCC4)c2)CC1 | -4% | >57
COc1ccc(C(=O)Nn2cc3c(c2-c2ccccc2)c(=O)n(C)c(=O)n3C)cc1 | 22% | >57
N#Cc1c(NC(=O)c2cc(-n3cnnc3)ccc2Cl)sc2c1CCCC2 | x | >57
Cn1c(SCc2ccc(Br)cc2)nnc1-c1cccs1 | -4% | >57
O=c1c2ccccc2nc(CN2CCCCCC2)n1-c1ccc(F)cc1 | u | >57
CCN(CC)C(=O)CSc1nnc(-c2cc3ccccc3cc2O)n1CC | 3% | >57
CCOc1ccc(OCc2ccc(C(=O)NCC3CCCO3)o2)cc1 (centres undefined) | u | >57
CCCCC(=O)NC(Nc1nc(C2CC2)cs1)(C(=O)OCC)C(F)(F)F (centres undefined) | -5% | >57
O=C(N1CCCCC1)C12CC3CC(C1)CC(C(=O)N1CCCCC1)(C3)C2 | 11% | >57
COc1ccccc1N1CCN(C(=O)c2ccc(C(C)(C)C)cc2)CC1 | 2% | >57
COC(=O)CSc1nc(C2CC2)cc(C(F)(F)F)c1C#N | -6% | >57
CC1(C(=O)O)CCC(C(=O)Nc2ccc(S(N)(=O)=O)cc2)C1(C)C (centres undefined) | u | x
COc1ccc(-c2nc(N)n[nH]2)cc1OC | -3% | >57
N#Cc1ccccc1NC(=O)Nc1cccc(Cl)c1 | -20% | x
CCOC(=O)C1=C(C)OC(N)=C(C#N)C1C1CCCCC1 (centres undefined) | 17% | x
COc1ccc(CCNc2oc(-c3ccc(C)cc3)nc2C#N)cc1OC | 9% | >57
CN(CC(=O)NCc1cccs1)S(=O)(=O)c1cccc2cccnc12 | -13% | >57
O=C(NCc1ccco1)C1CCN(c2ccc(N3CCOCC3)nn2)CC1 | 5% | >57
CC1(C)CC(=O)C(C=NCCN2CCN(C(=O)CC3CCCC3)CC2)=C(O)C1 | 9% | x

Four entries picked at random from those above, as already listed:
SMILES | LT uptake inh | SmPrx2 inh
CN(CC(=O)NCc1cccs1)S(=O)(=O)c1cccc2cccnc12 | -13% | >57
O=C(NCc1ccco1)C1CCN(c2ccc(N3CCOCC3)nn2)CC1 | 5% | >57
COc1ccc(-c2nc(N)n[nH]2)cc1OC | -3% | >57
CCCCC(=O)NC(Nc1nc(C2CC2)cs1)(C(=O)OCC)C(F)(F)F (centres undefined) | -5% | >57

Other results follow:
SMILES | LT uptake inh | SmPrx2 inh
Clc1ccccc1-c1cc(NCc2cccnc2)ncn1 | -2% | >57
O=c1n(-c2ccccc2)c(=O)n2n1CCCC2 | 10% | >57
COc1cccc(C(c2sc3nc(C)nn3c2O)N2CCc3ccccc3C2)c1 (centres undefined) | 3% | >57
COc1ccc(CNc2ccnc(-c3ccccc3Cl)n2)c(OC)c1 | u | >57
CCCc1cc(N2CCCC(C(=O)Nc3c(OC)cccc3OC)C2)n2ncnc2n1 (centres undefined) | -9% | >57
CCCCC(=O)Nc1cccc(NC(=O)CC)c1 | -3% | x
CN1CC[C@@]2(CCCN(C(=O)c3ccncc3)C2)C1 | -10% | >57
COc1ccc(-c2cc(=O)c3ccc(O)cc3o2)cc1 | -19% | >57
O=CN1CCN(C[C@H](O)CN2CCCCC2)CC1 | -5%[8 µM] | >57
CS(=O)(=O)CCC(C(=O)N1CCOCC1)N1C(=O)c2cc(Cl)c(Cl)cc2C1=O (centres undefined) | 11% | >57
Cc1ccc(CNC(=O)c2cc3c(=O)n4cccc(C)c4nc3n(CC3CCCO3)c2=N)cc1 (centres undefined) | u | >57
CC(C)CN(CC(C)C)S(=O)(=O)N1CCC(C(=O)NCc2ccc(F)cc2)CC1 | -10% | x
CCN(CC)CCNC(=O)COc1ccc(OC)cc1 | 2%[3.58 µM] | >57
COC(=O)CCC(=O)Oc1ccc(OC(=O)CCC(=O)OC)cc1 | -13% | x
Cc1c(C(=O)OC(C)C)[nH]c2c1C(=O)CCC2 | 10% | >57
C=CCn1c(O)c(C(CC)=NCCCO)c(=O)[nH]c1=O | -14% | >57
Cc1ccc(-c2cc(C(F)(F)F)n3ncc(C(=O)O)c3n2)cc1 | u | >57
COc1ccc(S(=O)(=O)N2CCN(C(=O)COc3ccc4c(C)cc(=O)oc4c3)CC2)cc1 | 2% | >57
CCCN(CCC)C1CC(=O)N(Cc2ccccc2)C1=O (centres undefined) | 0% | >57
CCn1nnc(-c2ccccc2NC(=O)c2cc(OC)cc(OC)c2)n1 | -14% | >57

An excerpt of these results, as labelled records.
> CCCCC(=O)Nc1cccc(NC(=O)CC)c1
  LT uptake inh: -3%; SmPrx2 inh: x

> C=CCn1c(O)c(C(CC)=NCCCO)c(=O)[nH]c1=O
  LT uptake inh: -14%; SmPrx2 inh: >57

> CCCN(CCC)C1CC(=O)N(Cc2ccccc2)C1=O (centres undefined)
  LT uptake inh: 0%; SmPrx2 inh: >57

> COc1ccc(-c2cc(=O)c3ccc(O)cc3o2)cc1
  LT uptake inh: -19%; SmPrx2 inh: >57

Continuation.
SMILES | LT uptake inh | SmPrx2 inh
Cc1[nH]c2ccccc2c1C(O)CN1CCN(c2cccc(C(F)(F)F)c2)CC1 (centres undefined) | u | u
Cn1c(=O)c2c(ncn2CC(=O)OCc2ccccc2)n(C)c1=O | -14% | >57
Cc1onc(-c2ccccc2)c1C(=O)NCc1ccccn1 | -1% | >57
O=C(c1cc(-c2ccccc2O)on1)N1CCCC1 | -7% | >57
CNC(=O)c1cccc(N2CCCC2=O)c1 | -16% | >57
CCN1CCN(Cc2ccc(NC(=O)Nc3ccccc3)cc2)CC1 | u | >57
Cn1c(=O)c2c(ncn2CC(=O)NCc2cccnc2)n(C)c1=O | 4% | x
COc1ccc(CCNS(=O)(=O)c2ccccc2)cc1OC | x | >57
CCOC(=O)c1c(C)n(Cc2ccccc2)c2ccc(OCC(O)CN3C(=O)CNC3=O)cc12 (centres undefined) | -14% | >57
CC(C)C(OC(=O)c1ccco1)C(=O)NCc1ccco1 (centres undefined) | -8% | >57
CCOc1ccc(S(=O)(=O)Nc2ccc(Cl)cn2)c(C)c1C | -6% | >57
CCCCCCOC(=O)NCC(O)c1ccccc1 (centres undefined) | -2% | >57
COc1ccccc1NC(=O)c1ccc(COc2ccccc2OC)o1 | -10% | >57
CC(c1cccnc1)N(CCN(C)C)C(=O)Nc1ccc(Cl)c(Cl)c1 (centres undefined) | -20% | >57
O=C(NC1CCN(Cc2ccccc2)CC1)C1CCN(c2nnc(-n3cccc3)s2)CC1 | -5% | >57
O=C1CN(C(=O)COc2ccccc2)CCN1 | 14% | >57
COc1cc(NC(=O)C2CCCO2)c(C(=O)O)cc1OC (centres undefined) | -1% | >57
COC(=O)C1=C(C)NC(C)=C(C(=O)OCCN(C)Cc2ccccc2)[C@H]1c1cccc([N+](=O)[O-])c1 | 4%[3.58 µM] | >57
CC[C@@H]1Cc2cc(O)ccc2C2=C1c1ccc(O)cc1C[C@H]2CC | u | >57
Cc1ccc(S(=O)(=O)N2CC3CCC2C3)cc1 (centres undefined) | 11% | >57
COc1cc2c(cc1OC)C(=NCCC(=O)O)NC(C)(C)C2 | -6% | >57
CC(=O)c1cccc(NC(=O)c2cc(-c3ccc(C)cc3)on2)c1 | 0% | >57
c1coc(CNc2c3c(nc4ncnn24)CCC3)c1 | -14% | >57
CCOC(=O)/C(C#N)=C(\N)C(C)C(=O)Nc1ccccn1 (centres undefined) | x | >57
CCOc1ccc(-n2c(=O)cc(N3CCN(c4ccc(F)cc4)CC3)[nH]c2=O)cc1 | -7% | >57
O=C(NC(NC1CCS(=O)(=O)C1)C(=O)c1cccs1)c1ccccc1 (centres undefined) | 0% | >57
O=C(c1ccncc1)N1CCC2(CCCN(c3ccccn3)C2)CC1 | 9% | >57
O=C(CSc1nnc(Cc2cccs2)n1-c1ccccc1)NC1CCCCC1 | u | >57
O=C(CSc1nc2ccccc2o1)NCc1ccc2c(c1)OCO2 | u | >57
CN(c1ccc(Cl)cc1)c1cc(=O)n(C)c2ccccc12 | -11% | >57
O=C(CSc1nc(O)cc(=O)[nH]1)C1CC1 | -3% | x
O=S(=O)(c1ccc(Cl)cc1)N1CCN(c2ccc(N3CCOCC3)nn2)CC1 | 15% | >57
CN1CCc2c(sc3c2C(=O)NC(/C=C/c2ccco2)N3)C1 (centres undefined) | -9% | >57
CC(C)CN1CCCC2(CCN(C(=O)Oc3ccccc3)CC2)C1 | u | >57
CCCN1CCN(CCCNC(=O)Cn2nc(-c3ccc(Cl)cc3)ccc2=O)CC1 | u | >57
CC(C)CNCCc1ccccn1 | u | >57
c1csc(-c2noc(COc3ccc4c(c3)CCCC4)n2)c1 | u | >57
Cc1ccc2oc(=O)c3cnn(CC(=O)NC4CCCCC4C)c3c2c1 (centres undefined) | -5% | >57
Cc1cc(C(=O)COC(=O)CCC(=O)c2ccc3c(c2)OCCO3)c(C)n1Cc1ccco1 | -10% | >57
CCCOc1ccc(C(=O)NCCC(=O)NCCCC(=O)OCC)cc1 | 1% | >57
CCC(=O)Nc1ncnc2ncn(C(=O)CC)c12 | -5%[8 µM] | >57
